Screens from PubChem BioAssay.
KCNQ2 enhance = potentiators of rat KCNQ2 potassium channel | CHO-K1 KCNQ2, FluxOR thallium flux fluorescence; hits give high values | AID 2239 | hit rate 0.54% among 310,000 | B-score at 10 µM;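 active = fluorescence ratio B-score at least 3 SD of library B-scores, with initial fluorescence B-score within 3 SD, cut at about 5.3 in these data; same plate scores as AID 2156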;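 also: B-score of peak minus minimum over baseline fluorescence ratio after K+ and Tl+ stimulus; positive B-score means potentiation of KCNQ2 with more thallium influx and brighter signal; only the inactives scoring about 0 or higher are listed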
Target sequence (O88943 whole entry, looked up): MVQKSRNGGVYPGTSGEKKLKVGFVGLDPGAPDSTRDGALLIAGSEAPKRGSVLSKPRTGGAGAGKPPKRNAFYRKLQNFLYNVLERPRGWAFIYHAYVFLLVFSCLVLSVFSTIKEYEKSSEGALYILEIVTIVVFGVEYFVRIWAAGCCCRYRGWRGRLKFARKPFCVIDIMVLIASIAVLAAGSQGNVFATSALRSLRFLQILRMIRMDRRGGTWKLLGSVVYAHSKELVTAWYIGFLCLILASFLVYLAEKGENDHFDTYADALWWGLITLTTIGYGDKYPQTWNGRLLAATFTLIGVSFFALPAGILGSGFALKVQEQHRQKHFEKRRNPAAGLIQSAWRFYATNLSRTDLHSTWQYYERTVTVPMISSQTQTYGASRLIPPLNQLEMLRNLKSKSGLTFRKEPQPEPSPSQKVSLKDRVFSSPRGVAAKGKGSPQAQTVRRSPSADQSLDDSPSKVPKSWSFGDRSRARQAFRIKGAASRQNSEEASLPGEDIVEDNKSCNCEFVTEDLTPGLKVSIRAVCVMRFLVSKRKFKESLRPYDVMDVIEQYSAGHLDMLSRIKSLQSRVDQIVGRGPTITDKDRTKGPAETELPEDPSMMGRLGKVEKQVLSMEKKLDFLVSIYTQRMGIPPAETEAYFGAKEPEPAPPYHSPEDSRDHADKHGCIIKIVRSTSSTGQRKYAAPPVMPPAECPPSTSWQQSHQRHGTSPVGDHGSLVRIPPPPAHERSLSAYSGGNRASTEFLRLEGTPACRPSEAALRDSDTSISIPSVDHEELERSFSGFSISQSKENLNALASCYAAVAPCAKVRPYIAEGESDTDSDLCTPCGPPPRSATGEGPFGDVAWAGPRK
KCNQ2 enhance baseline = further read-out of KCNQ2 enhance, marked with its call; B-score; compound at 10 µM; measured here: initial fluorescence intensity artifact check;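 brightness before thallium and not channel activity; 0 = typical well and far values either way flag optical interference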
An asterisk follows results filed as active.

SMILES	KCNQ2 enhance	KCNQ2 enhance baseline
Cc1cc(NC(=O)CCC(=O)N(Cc2ccco2)C2(C(=O)NC3CCCC3)CCCCC2C)no1 (stereo unspecified)	0.97	0.13
Cc1ccc(S(=O)(=O)/N=C2/NC(=O)/C(=C/c3ccccn3)S2)cc1	0.86	-0.04
COCc1cc(=O)[nH]c(Nc2nc(C)c3cc(OC)ccc3n2)n1	1.37	1.21
COC(=O)c1cc(=O)n(-c2c(Cl)cc(C(F)(F)F)cc2Cl)[nH]1	1	2.77
CCOc1cc(N2CCOCC2)c(OCC)cc1NC(=O)CN1CCCC(C)C1 (stereo unspecified)	2.81	0.38
O=C(Nc1ccccn1)c1ccc(NC(=O)c2ccco2)cc1	0.58	0.81
CCCC(C)C(=O)Nc1nc(C)c(-c2csc(Nc3ccc(Cl)cc3)n2)s1 (stereo unspecified)	0.29	0.25
CC(C)c1ccc(NC(=O)CNS(=O)(=O)c2ccc(F)cc2)cc1	0.12	2.84
O=C(NC1CCN(Cc2ccccc2)CC1)c1cc(-c2ccccn2)nc2ccccc12	0.86	1.18
O=C(Nn1cnnc1)c1ccc(Cl)cc1	1.83	1.38
COc1ccc(/C=C2\SC(N3CCCCC3)=NC2=O)cc1OC	2.13	-0.43
COCCNC(=O)c1ccccc1NC(=O)c1cccc([N+](=O)[O-])c1C	2.15	0.04
COc1ccnc(Oc2ccc3ccccc3c2)c1C#N	1.75	-0.03
CCn1c(SCC(=O)Nc2ncc(C(F)(F)F)cc2Cl)nnc1-c1cccc(C)c1	1.26	-0.41
NC1(N)OC(CN2C(=O)c3ccccc3C2=O)CS1 (stereo unspecified)	1.79	-2.14
Cc1nn(C(C)(C)C)c(NC(=O)c2ccc(Cl)cc2Cl)c1Br	1.09	0.68
CCCNC(=O)Cn1c(=O)n(CC(=O)N2CCCCC2)c(=O)c2sccc21	0.8	-1.04
Cc1cc(C)n(CC(=O)NNC(=O)C2CC(=O)N(Cc3ccccc3Cl)C2)n1 (stereo unspecified)	1.66	-0.22
CCc1ccc2[nH]c3nc(SCC(=O)NNC(=O)c4ccc(C(C)(C)C)cc4)nnc3c2c1	1.58	0.04
CC1CCN(C(=O)Cn2c3ccc(F)cc3c3nc4n(c(=O)c32)CCCS4)CC1	0.39	0.74
O=C(Nc1ccc(-c2nc3cccnc3s2)cc1)c1ccco1	0.42	-0.99
O=C(Cc1cccs1)NNC(=O)C12CC3CC(CC(C3)C1)C2	1.2	-2
COC(=O)COc1ccc(/C=C2\SC(=O)N(CC(=O)Nc3ccccc3F)C2=O)cc1	0.58	0.75
O=C(CCN1C(=O)S/C(=C\C=C\c2ccccc2)C1=O)Nc1ccc(O)cc1	1.5	-2.43
COc1cccc(CN2CCNC(=O)C2CC(=O)NCCCC2CCCC2)c1OC (stereo unspecified)	0.53	0.2
CC/C(=N\NC(=S)Nc1cc(C)ccc1C)c1ccc(OC(F)F)cc1	0.53	-0.57
O=C(N/N=C/c1ccccc1)c1ccc(OCc2ccccc2)cc1	0.39	0.05
CN1C(=O)N(C)C2(C)CC1(C)N(C)C(=O)N2C	1.43	0.43
COC(=O)C1=NN(c2ccc(OC)cc2)C2C(=O)N(c3ccccc3OC)C(=O)C12 (stereo unspecified)	0.52	-0.31
Cc1ccc(Cl)cc1-n1c(=O)cc(N2CC(C)OC(C)C2)[nH]c1=O (stereo unspecified)	0.49	0.37
CCOC(=O)Cn1ncc2c3ccccc3n(CC(=O)OCC)c2c1=O	1.16	-0.07
COC(=O)NNC(=O)C1CCC(C)CC1 (stereo unspecified)	0.62	-0.3
COc1cc(OC)cc(C(=O)NNC(=S)Nc2ccccc2OC)c1	1.05	-3.33
CCOc1ccc(Cl)cc1S(=O)(=O)N1CCCC1	0.04	-0.51
COc1ccccc1Oc1cn[nH]c1-c1ccc(O)cc1O	0.14	0.42
COc1ccc(CN(C(=O)c2ccco2)C2CC(C)N(C)CC2C)cc1 (stereo unspecified)	1.3	-0.83
COCc1nnc(NC(=O)c2cc(Cl)ccc2OC)s1	0.33	-0.58
CC(C)c1nnc(NC(=O)CCC(=O)NC2CCCCCCC2)s1	0.01	-1.82
C/C(=N\NC(=O)CSCc1ccc([N+](=O)[O-])cc1)c1cccc(Br)c1	0.53	-0.47
Cc1cc(C)cc(N(CC(=O)NC2CC3CCC2C3)S(C)(=O)=O)c1 (stereo unspecified)	0.8	0.05
CCn1nc(NS(=O)(=O)c2ccccc2[N+](=O)[O-])c2cc3cccc(C)c3nc21	0.42	-1.35
CCC(Sc1nc(N)cc(=O)[nH]1)C(=O)NC(C(=O)OC)c1ccccc1 (stereo unspecified)	1.16	-0.49
C=CCN(CC=C)C(=O)c1ccc(OC2CCN(C(C)=O)CC2)c(OC)c1	0.54	0.72
O=C(CCSc1nnc(-c2ccco2)o1)Nc1ccccc1	0.13	-0.19
Cc1cccn2cc(-c3ccc(F)cc3)cc12	0.01	1.78
CCc1cccc(CC)c1NC(=O)C1CC(=O)N(c2ccc3c(c2)OCCO3)C1 (stereo unspecified)	0.65	2.01
CCN(Cc1ccccc1)C(c1cc2ccc(C)cc2[nH]c1=O)c1nnnn1CCOC (stereo unspecified)	0.53	-0.78
COC(=O)c1cc(NCc2ccc3c(c2)OCO3)ccc1N1CCOCC1	0.25	0.18
O=C(CN1CCN(Cc2cccc(Cl)c2)C1=O)NCC1CCCO1 (stereo unspecified)	0.5	0.84
O=C1CN(C(=O)COC(=O)c2ccc[n+]([O-])c2)c2ccccc2N1	0.58	-1.82
Cc1ccc(S(=O)(=O)NCCOc2nc(N3CCOCC3)nc(N3CCOCC3)n2)cc1	1.01	1.95
COc1cccc(NC(=O)CCC2CCN(C(=O)c3c(C)noc3C)CC2)c1	0.06	-1.33
CC(=O)Nc1ccc(N2CC(C)(C)C2=O)cc1	0.52	-1.31
COc1ccc(NC(=O)CSc2nnc(-c3ccccn3)n2N)c(OC)c1	0.57	-0.78
COc1ccccc1CCNS(=O)(=O)CCNC(=O)c1ccc2c(c1)OCO2	0.7	-0.6
CCOC(=O)C1=C(CC)Nc2ccccc2N/C1=N\S(=O)(=O)c1ccc(C(=O)OCC)cc1	0.5	-2.3
COCCCNC(=O)C1CCN(S(=O)(=O)N(CC(C)C)CC(C)C)CC1	0.84	-0.18
CCn1c(SCC(=O)N(C)Cc2ccc(OC)c(F)c2)nc2cc(S(N)(=O)=O)ccc21	1.03	-0.96
CCC(=O)N1CCc2cc(S(=O)(=O)NC(C(=O)Nc3cccc(C)n3)C(C)C)ccc21 (stereo unspecified)	0.52	-0.09
CCCC(=O)Nc1ccc(C(=O)N/N=C/c2cccnc2)cc1	1.62	0.18

Continued.
SMILES	KCNQ2 enhance	KCNQ2 enhance baseline
Cc1cccc2nc3c(nc12)-c1ccccc1C3=O	0.16	0.22
Clc1ccc(Nc2ncn[nH]2)cc1	0.28	-0.36
COc1ccc(NC(=O)N2CCCC(CNS(=O)(=O)c3cccs3)C2)c(C)c1 (stereo unspecified)	1.16	-1.35
Cc1ccc(N=Cc2cc3c(cc2[N+](=O)[O-])OCO3)cc1[N+](=O)[O-]	0.01	1.79
COCCNc1nnc(SCC(=O)c2ccc3c(c2)OCO3)s1	0.25	-0.21
CC(C)OCC(O)CN1CCC(Cc2ccccc2)CC1 (stereo unspecified)	0.13	1.8
Cc1nnc(SCC(=O)Nc2nnc(SCc3cccc(Br)c3)s2)s1	1.51	-1.89
N=C1/C(=C/c2ccc(OC(=O)c3ccco3)cc2)C(=O)N=C2SC=CN12	0.11	1.98
CC(=O)Nc1ccc(Nc2cc(-c3ccccc3)nc3ncnn23)cc1	0.56	-0.66
O=C(Nc1ccc(N2CCOCC2)cc1)c1nc2ccccc2s1	0.43	0.23
NC(=O)N/N=C\c1cccs1	0.89	0.01
O=C(/C=C/c1cccs1)c1ccc(NC(=O)c2cccc(Br)c2)cc1	1.47	-1.64
CCOC(=O)N1CCN(C(=O)c2n[nH]c(=O)c3ccccc23)CC1	0.78	-1.92
Cc1ccc(S(=O)(=O)N2CC(O)CC2C(=O)OCc2nc3sc(C)c(C)c3c(=O)[nH]2)cc1 (stereo unspecified)	0.33	-2.37
CC(=O)NC1CC(C)(C)N(OC(C)=O)C(C)(C)C1	1.54	0.04
CCCNC(=O)CSc1nc2[nH]ncc2c(=O)[nH]1	0.24	-0.16
O=C(NN=C1c2ccccc2-c2ccccc21)c1cccc(Br)c1	17.1*	2.93*
CC1CN(c2ccnc3cc(Cl)ccc23)CC(C)O1 (stereo unspecified)	2.18	-0.8
CCOC(=O)c1[nH]cnc1C(=O)Nc1cccc(N)n1	1.56	-2.37
COC(=O)C1=C(C)NC(=S)NC1c1ccc(-c2cccc(Cl)c2)o1 (stereo unspecified)	2.09	-0.28

Sorted by the number under KCNQ2 enhance baseline (ascending): three from the list above.
canonical_smiles,KCNQ2 enhance,KCNQ2 enhance baseline
CCOC(=O)C1=C(CC)Nc2ccccc2N/C1=N\S(=O)(=O)c1ccc(C(=O)OCC)cc1,0.5,-2.3
CC(=O)Nc1ccc(N2CC(C)(C)C2=O)cc1,0.52,-1.31
O=C(N/N=C/c1ccccc1)c1ccc(OCc2ccccc2)cc1,0.39,0.05

Another view of some results above.
Each structure is followed by: KCNQ2 enhance | KCNQ2 enhance baseline
CCOC(=O)Cn1ncc2c3ccccc3n(CC(=O)OCC)c2c1=O
  1.16 | -0.07
COC(=O)NNC(=O)C1CCC(C)CC1 (stereo unspecified)
  0.62 | -0.3
COc1cc(OC)cc(C(=O)NNC(=S)Nc2ccccc2OC)c1
  1.05 | -3.33
CCOc1ccc(Cl)cc1S(=O)(=O)N1CCCC1
  0.04 | -0.51

Later entries.
SMILES	KCNQ2 enhance	KCNQ2 enhance baseline
Cn1cccc1/C=N/NC(=O)c1cccs1	1.17	0.08
Cc1cc(Cl)ccc1OCc1n[nH]c(=S)n1C1CCCCC1	1.88	1.46
O=C(COc1ccc2ccccc2c1)Nc1nccs1	1.02	-0.54
COc1ccc(/C=N/n2c(-c3cccs3)n[nH]c2=S)cc1	0.68	0.38
CC(=O)c1ccc(-c2ccc(C(=O)N(C)c3c(N)n(Cc4ccccc4)c(=O)[nH]c3=O)o2)cc1	0.65	-0.02
CCNC(=O)N1CCN(C(=O)NCC)CC1	0.18	-0.3
COc1cccc(CC(=O)Nc2ccc3c(c2)CCC3)c1	6.03*	-0.1*
CC[C@@H](C)C(NC(=O)OC(C)(C)C)c1cn([C@@H](Cc2ccc(O)cc2)C(=O)N2CCN(C(=O)OC(C)(C)C)CC2)nn1 (stereo partly specified)	0.14	1.76
O=C(Nc1nc2ccccc2s1)c1ccc(OCC2CCCO2)cc1 (stereo unspecified)	0.86	1.35
CCOC(=O)c1c(C)[nH]c(C)c1S(=O)(=O)N1CCN(c2cccc(C)c2)C(C)C1 (stereo unspecified)	0.55	-0.95
COc1ccc(CCNC(=O)CSc2nn(-c3ccccc3)c(=S)s2)cc1	1.06	-0.75
CC1Cc2ccccc2N1C(=O)C1CCCN1S(=O)(=O)c1ccc(Cl)cc1 (stereo unspecified)	0.26	0
COc1cc(/C=N/NC(=O)CCn2c3ccccc3c3ccccc32)ccc1O	0.88	-1.02
CN(CC(=O)Nc1ccc(Cl)c(C(F)(F)F)c1)C(=O)c1ccc(N2CCOCC2)c([N+](=O)[O-])c1	3.29	2.1
Cn1nc(C(C)(C)C)cc1C(=O)NCc1ccc(N2CCCC2=O)cc1	0.62	0
N#Cc1cn(CC(=O)NCc2cccnc2)c2ccccc12	0.27	-0.03
C/C=C/C(=O)OCC(=O)NC(=O)NC(C)C	0.05	-0.01
CC1CN(C(=O)CCC(=O)N2CCCCC2)c2cc(Cl)ccc2O1 (stereo unspecified)	0.11	1.48
CCCNC(=O)C1CC(=O)N(c2ccc(OCC(=O)Nc3cccc(C)c3C)cc2)C1 (stereo unspecified)	0.06	-1.02
O=C1[C@@H]2[C@H](C(=O)N1Cc1ccco1)[C@H]1C=C[C@@H]2C1	0.02	-0.96

Retrieved by structure from the entries so far:
SMILES	KCNQ2 enhance	KCNQ2 enhance baseline
Cn1nc(C(C)(C)C)cc1C(=O)NCc1ccc(N2CCCC2=O)cc1	0.62	0
Cn1cccc1/C=N/NC(=O)c1cccs1	1.17	0.08
Cc1cc(Cl)ccc1OCc1n[nH]c(=S)n1C1CCCCC1	1.88	1.46

Other structures:
SMILES	KCNQ2 enhance	KCNQ2 enhance baseline
CCOC(=O)Cn1c(C)cc(=O)c2cccc(C)c21	1.56	0.16
CCOc1ccc(Nc2nc(Cc3nnc(SCC(=O)c4ccc(C)c(C)c4)o3)cs2)cc1	0.74	-0.29
CCCOc1ccc(C(=O)Nc2ccc3c(c2)OCCO3)cc1	1.06	-0.56
COc1c(OC(C)=O)ccc(/C=C/c2ccc3ccccc3n2)c1[N+](=O)[O-]	0.09	1.01
Cc1ccc(-c2c(=O)n(O)c3ccccc3[n+]2[O-])cc1	0.65	0.75
CCOC(=O)c1ccc(NC(=O)Nc2cc(C)cc(C)n2)cc1	1.27	0.01
CCOc1ccccc1CN1CCC(N2CCC(C(=O)NC3CC3)CC2)CC1	0.26	-1.14
CCOC(=O)N1CCN(S(=O)(=O)c2ccc3c(c2)CCN3C(=O)CC)CC1	0.66	0.65
CC(=O)c1ccccc1OCC(O)CN1CCN(c2ccccn2)CC1 (stereo unspecified)	0.9	-1.44
CCOC(=O)C1=C(C)N(CCCC(=O)O)C(=O)NC1c1cc2ccccc2c2ccccc12 (stereo unspecified)	0.32	-0.34
CCn1cc(C(=O)NCc2cccs2)c(=O)c2cc(S(=O)(=O)N3CCOCC3)ccc21	0.8	-0.16
O=C(COC(=O)c1cnccn1)Nc1ccc(Cl)cn1	1.93	0.6
CC1CCN(CCCn2c(=S)[nH]c3c(sc4ccc([N+](=O)[O-])cc43)c2=O)CC1	0.03	0.01
O=C(Nc1nnc(-c2cccs2)s1)c1cccc(F)c1	1.66	-0.05

An excerpt. The share of hits here may be higher or lower than overall.
